# Source: PubChem BioAssay
# NPYLR7 ag: activates Aedes aegypti NPYLR7 receptor; HEK293T NPYLR7/Galpha15, GCaMP6s calcium fluorescence; activation, % at 10 µM; hit rate 0.15% among 270,000; AID 1259423; in the data active = activation above about 40%;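 note: 0% = vehicle and 100% = reference agonist at the receptor; some compounds past the cut are filed as inactive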
# NPYLR7 ag max-min: also measured in NPYLR7 ag; calls as there; activation, %; measured here: Max-Min RFU normalised activation; some inactives read as strong as hits;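 span of the calcium signal over five minutes; 0% = vehicle and 100% = native peptide agonist; compound fluorescence can raise it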
# * marks the source's active call; other numbers are inactive results; & = joins results of further samples. A portion of the library; rates above refer to the full screens.
SMILES,NPYLR7 ag,NPYLR7 ag max-min
Cn1c(=O)c2cc(NC(=O)CCc3ccc(O)cc3)ccc2n1Cc1ccc(F)cc1,0,-2
COc1cccc(CN2CCC2(C)C(=O)NCCNC(C)=O)c1F (stereo not given),8,0
COc1cccc(C(=O)N(CCN(C)C)Cc2c(-c3ccc(F)cc3)noc2N2CCOCC2)c1,7,11
O=S(=O)(Oc1cccc2cccnc12)c1ccc(F)cc1,-2,-4
COc1ccc(NS(=O)(=O)c2ccc(F)cc2)c(C)n1,-2,-3
CC(C)c1noc(C2CCCN2Cc2ncccc2C(=O)O)n1 (stereo not given),27,12
CCOc1ccc(N=c2scc(-c3ccc4c(c3)NC(=O)CO4)n2C2CCCC2)cc1,-3,-4
CCc1ccc(CN2CCOC(CCNC(C)=O)C2)nc1 (stereo not given),3,-1
CC(C)=CCC/C(C)=C/C(=O)NCc1ccccn1,-10,-10
COc1cccc(-c2cc(=O)c3ccc(OC)cc3o2)c1,-4,-7
CCC(C=NNC(=O)CCCCC(=O)NN=CC(CC)CC)CC,-4,-7
CCC(NC(=O)c1cccc(F)c1OC)c1cccs1 (stereo not given),-3,-6
CSc1nsc(NC(=O)Nc2ccccc2C)n1,0,0
O=C(NCc1ccc(F)cc1)c1cccc(Nc2c(Oc3ccccc3)cnn(Cc3ccccc3)c2=O)c1,12,18
CC(=O)c1c(C)[nH]c(-c2csc(Cc3nnc4n3CCCCC4)n2)c1C,0,-4
Cc1nc(C(=O)N(Cc2ccc(F)cc2)CC2CCCO2)cs1 (stereo not given),0,-7
Cc1ncc(CN(C)CC2Cc3ccccc3CN2C)[nH]1 (stereo not given),7,4
Cc1cccc(CC(=O)NCc2cn(C)nc2C)c1,-1,-2
CN(CCCNC(=O)c1ccc2ccccc2n1)c1ccccc1,1,0
CCCCCn1c(C2CC(=O)N(CCCC)C2)nc2ccccc21 (stereo not given),-4,-7
CCC(C)(N)COc1ncccc1Cl (stereo not given),-2,-2
OC[C@H]1CCN(C2CCN(c3ccc4c(c3)OCO4)CC2)C[C@@H]1O,8,1
COc1cc(C)ccc1Oc1cnn(C)c(=O)c1Nc1cccc(C(=O)NC(C)c2ccccc2)c1 (stereo not given),11,10
CC(=O)Nc1ccc(-c2c(-c3ccccc3)ncn2CCc2cn[nH]c2)cc1,-5,-9
CCC(=O)Nc1ccccc1C(=O)N1CCN(Cc2ccccc2)CC1,-21,-24
COCCNC(=O)c1ccc(CSc2nc(COC)cc(N3CCOCC3)n2)o1,5,10
C/C=C/c1ccc(OC(C)C(=O)Nc2c(C)cccc2C)c(OC)c1 (stereo not given),-3,-5
C[C@@H](CN1CCC(Cc2ccccc2)CC1)[C@@H](O)c1ccc(O)cc1,-10&4,-14&-16
Cc1ccc(C(=O)N2CCC(C(Cc3ccc(F)cc3F)N(C)C(=O)C3CC3)CC2)s1 (stereo not given),-3,-5
Cc1[nH]n2c(=O)c3c(nc2c1-c1cccc2ccccc12)CCCC3,2,-2
Cc1ccc(Cn2c(CN3CCCC(C)C3)nc3c2c(=O)n(C)c(=O)n3C)cc1 (stereo not given),9,3
COc1ccc(CCNC(=O)CN2CN(c3ccccc3)C3(CCN(C(=O)c4ccc(Br)cc4)CC3)C2=O)cc1OC,16,16
COc1ccccc1CN1C(=O)c2ccccc2NC1c1ccc(COC(C)=O)o1 (stereo not given),-3,-3
COc1ccc(C=NNC(=O)CC2C(=O)NN=C3c4ccccc4N=CN32)cc1 (stereo not given),3,8
CC(C)N(C(=O)CCl)c1ccc(Nc2ccccc2)cc1,-1,-3
CC(C)Cc1nc(CN(C)C(=O)C2CCCN(Cc3ccco3)C2)no1 (stereo not given),7,6
Cc1noc(C)c1C(=O)NCc1cccc(Cn2cccn2)c1,20,19
CCOc1ccc(/C=C2\N=C(c3cc(F)c(F)cc3Cl)OC2=O)cc1,14,17
CC(C)N(CC[C@H](c1ccccc1)c1cc(CO)ccc1O)C(C)C,-7,-12
CC(C)CC1CCN(Cc2cn[nH]c2C(=O)O)C1 (stereo not given),5,2

# Overlap with the part before: 4 compounds, then new ones.
SMILES,NPYLR7 ag,NPYLR7 ag max-min
Cc1noc(C)c1C(=O)NCc1cccc(Cn2cccn2)c1,20,19
CCOc1ccc(/C=C2\N=C(c3cc(F)c(F)cc3Cl)OC2=O)cc1,14,17
CC(C)N(CC[C@H](c1ccccc1)c1cc(CO)ccc1O)C(C)C,-7,-12
CC(C)CC1CCN(Cc2cn[nH]c2C(=O)O)C1 (stereo not given),5,2
CC1(C(=O)NS(=O)(=O)c2ccc(C#N)cc2)CCN1C(=O)C1CCCCC1 (stereo not given),9,6
Cc1cc(C)cc(CC(=O)N2CCC2(C)C(=O)NCc2ccc(Cl)cc2)c1 (stereo not given),13,12
O=C(Cn1cnc([N+](=O)[O-])n1)NCc1ccco1,-4,-10
COc1ccc(-c2nnc3ccc(OCCNC(=O)c4cccs4)nn23)cc1OC,1,35
COC(=O)c1cc(C2CC2)nc2c1c(-c1ccc(Cl)cc1)nn2C1CCS(=O)(=O)C1 (stereo not given),9,5
N#CCN(CC#N)C(=O)CCS(=O)(=O)Cc1ccccc1,0,-1
N#Cc1cccnc1NCc1ccc(N2CCCC2)nc1,0,1
CCCn1c(-c2ccc(C#N)cc2)nc2ccccc21,0,-3
COCCN(Cc1ccc(OC)cc1)c1c(C)nc2ccc(C(=O)NCCOc3ccc(OC)cc3)cn12,-7,-13
Cc1cccc(NC(=O)C2CSCN2C(=O)c2ccco2)c1C (stereo not given),10,4
Fc1ccc(C2(NCCN3CCCCC3)CCOCC2)cc1,6,3
NC(=O)CC(c1cccc(Oc2ccccc2)c1)n1ccnc1 (stereo not given),3,0
COc1cc(CN2CCC(C(=O)NC(c3ccc(Cl)cc3)c3cnccn3)CC2)cc(OC)c1 (stereo not given),34,25
O=C(NCC1CCCO1)N/N=C1/CCc2c(Cl)cccc21 (stereo not given),2,1
O=C1C2CC=CCC2C(=O)N1c1cc([N+](=O)[O-])ccc1F (stereo not given),-11,-14
O=C(C1CCC(CNc2c(N3CCOCC3)c(=O)c2=O)CC1)N1CCCCC1 (stereo not given),4,2
C=CCN(CC#Cc1ccccc1)C(=O)c1cc2n(n1)CCCN(C)C2,-2,7
COc1ccc(-c2nc(COC(=O)c3nnn(-c4ccc(C)c(C)c4)c3C)c(C)o2)cc1,5,-7
COc1ccc(-c2cc3c(cn2)nc(NCc2cccc(C)c2)n3C)c(C)c1,3,-2
CCCCNC(=O)C1(C)CCCCN1C(=O)c1sccc1C (stereo not given),1,0
O=C(NN=Cc1ccc([N+](=O)[O-])cc1)c1cc(C23CC4CC(CC(C4)C2)C3)[nH]n1,-1,-8
CN(C)S(=O)(=O)CCCN1CCN(CC(O)C(C)(C)C)CC1 (stereo not given),0,-3
COC(=O)CCc1c(C)c(C#N)c2nc3ccccc3n2c1N1CCCCC1,13,5
COc1ccc(NC(=O)Nc2ccc(N3CCN(c4ccccc4OC)CC3)c(C(=O)NCCc3ccccc3)c2)cc1,-4,1
COc1nc(-c2ccc(C(F)(F)F)cc2)n(-c2cccc(NC(=O)c3ccc(F)cc3)c2)n1,14,8
CCc1nc2n(n1)C(=O)C(C(c1cccs1)N1CCN(CC)CC1)S2 (stereo not given),-6,-10
O=C(Nc1ccc(N2CCC(Cc3ccccc3)CC2)c(C(=O)NCc2cccnc2)c1)c1ccc2ccccc2c1,0,-8
C[C@H](C(=O)Nc1ccccc1)N1Cc2ccc(-c3cccc(F)c3)nc2C1=O,2,1
CC(SCCC(=O)Nc1cccc(F)c1)c1ccccc1 (stereo not given),11,5
Cn1cc(C(=O)NCCCc2ccccc2)c2[nH]c(=O)n(-c3ccc(Cl)cc3)c(=O)c21,1,1
COc1ccc(-c2cc3c(=O)n(Cc4nc(-c5ccc(OC)cc5OC)no4)ccn3n2)cc1,-1,-2
CCOC(=O)CC(=O)NCC1Cc2cc(C(=O)OC)ccc2O1 (stereo not given),3,19
Cc1ccc(-c2nc3ccc(C)cn3c2NC(=O)CC(C)C)cc1,-6,-4
COc1ccc(C(=O)NCCOc2ccc3nnc(-c4ccccc4)n3n2)cc1,-9,-15
CC(C)NC(=O)N(Cc1ccc(C(F)(F)F)cc1)c1ccc(CC(=O)N2CCCCC2)cc1,11,10
CSC1CCC(N(C)C(=O)c2cccnc2NC(C)C)C1 (stereo not given),0,0
Cc1nc2c(c(C)c1CC(=O)NC1CCC(C)(C)c3ccccc31)c(=O)[nH]n2C (stereo not given),-1,40
COc1ccc(S(=O)(=O)N2CCc3ccccc3C2)cc1N1CCN(C(=O)CCSC)CC1,3,1
Cc1c(NC(=O)c2ccccc2F)cccc1-c1nc2cc(Cl)ccc2o1,1,-1
Cc1ccc(C(NC(=O)C2CCN(CCN3C(=O)c4ccccc4C3=O)CC2)c2ccccn2)cc1 (stereo not given),-7,0

# Entries of single compounds, looked up by structure.
# Shown for Cc1nc2c(c(C)c1CC(=O)NC1CCC(C)(C)c3ccccc31)c(=O)[nH]n2C (stereo not given) : NPYLR7 ag = -1; NPYLR7 ag max-min = 40
# Shown for Cc1ccc(C(NC(=O)C2CCN(CCN3C(=O)c4ccccc4C3=O)CC2)c2ccccn2)cc1 (stereo not given) : NPYLR7 ag = -7; NPYLR7 ag max-min = 0
# Shown for COc1nc(-c2ccc(C(F)(F)F)cc2)n(-c2cccc(NC(=O)c3ccc(F)cc3)c2)n1 : NPYLR7 ag = 14; NPYLR7 ag max-min = 8

# Continuation.
SMILES,NPYLR7 ag,NPYLR7 ag max-min
CN1CCC2(CC1)CN(Cc1ccc(C3CCCCO3)o1)CCCN2C (stereo not given),-4,-8
N#Cc1cnn(C(=O)CCn2ccc3ccccc32)c1N,9,7
C=CCNC(=O)c1nc(C(=O)N2CCc3sccc3C2C)cs1 (stereo not given),6,3
Cc1ccc(-n2c(-c3ccc(F)cc3)cc(C(=O)N3CCN(C(=O)Cc4cccs4)CC3)c2C)cc1,24,23
Cc1cc(C(=O)N(CCCN2CCOCC2)c2nc3c(Cl)cccc3s2)n(C)n1,1,-1
CCNC(=O)c1ccccc1-c1cc2ccccc2nc1OC,20,14
CSc1nc2c(c(=O)n(C)c(=O)n2C)n1C,6,7
CC1NC(=S)N(c2ccc(N3CCOCC3)cc2)C1=O (stereo not given),5,4
Cn1cc(-c2csc(Nc3ccc(C#N)cc3)n2)cn1,0,-1
Cc1nc(C)n(CCNc2nc(-c3ccncc3)nc3c2CCNC3)n1,2,5
Cn1ccnc1Sc1nnnn1-c1ccccc1,2,-2
CC12CCC(=O)C=C1CCN(C(=O)c1ccccc1)C2 (stereo not given),3,9
CCC(C(=O)N1CCCN(c2nc(CCC(C)C)nc3c2cnn3-c2cccc(Cl)c2)CC1)c1ccccc1 (stereo not given),29,26
CN1C(=O)CC(CC(=O)N2CCCCC2c2nccs2)(c2ccc(-c3ccccc3)cc2)C1=O (stereo not given),8,-2
CC(C)N1C(=O)CN(CN(C)Cc2ccc(C#N)cc2)C1=O,0,-2
Cc1ccc(N2CCN(C(=O)C(C)(C)C)C(C)C2=O)cc1F (stereo not given),23,27
O=C(N=Nc1c(O)[nH]c2ccccc12)c1cc(C2CC2)[nH]n1,7,7
C=c1[nH]/c(=C\c2ccc(OC)cc2OC)c(=O)o1,-5,-10
COC(=O)C1C(=O)C(C(=O)OC)C(c2ccc(C)cc2)C(C#N)(C#N)C1c1ccc(C)cc1 (stereo not given),-5,-8
O=C1CCCCCC1C1(O)C(=O)Nc2ccccc21 (stereo not given),8,2
N#Cc1cccc(S(=O)(=O)Nc2c(F)cccc2N2CCCC2)c1,8,3
Cc1ccc(S(=O)(=O)N2CCN(S(=O)(=O)c3ccc(C)cc3)c3nc4ccccc4nc32)cc1,0,-6
COc1cccc(C(=O)COC(=O)C2CC(=O)N(c3ccc(Oc4ccccc4OC)cc3)C2)c1 (stereo not given),-6,-8
CCOc1ccccc1CNc1nn[nH]n1,-11,-19
COc1ccccc1C1(CC(=O)N2CCCC2c2nccs2)CC(=O)N(C2CCCC2)C1=O (stereo not given),17,4
COc1cccc(NC(=O)C2(C)CCN2C(=O)CCc2ccc(Cl)cc2Cl)c1 (stereo not given),-5,-2
COc1ccccc1C1=NOC(CN(Cc2cccc(F)c2)C(=O)C2CC2)C1 (stereo not given),-12,3
CCOc1ccc(Br)cc1S(=O)(=O)Oc1cccc2c1OC(C)(C)C2,-5,-8

# Sorted by count of non-hydrogen atoms (ascending): three of the compounds above.
SMILES,NPYLR7 ag,NPYLR7 ag max-min
CC(C)c1noc(C2CCCN2Cc2ncccc2C(=O)O)n1 (stereo not given),27,12
CC(C)N(CC[C@H](c1ccccc1)c1cc(CO)ccc1O)C(C)C,-7,-12
COC(=O)c1cc(C2CC2)nc2c1c(-c1ccc(Cl)cc1)nn2C1CCS(=O)(=O)C1 (stereo not given),9,5
